FEN1 inh: blocks human flap endonuclease 1. P39748. Recombinant FEN1 flap cleavage, fluorescence, 15 min. Potency, µM (top dose mostly 114 µM), for the others: at the top dose activity change, negative = inhibition, usual class: inhibitors. 0.35% of 390,000 active; note: nearly all actives have a fitted effect of over 65% in size
Target sequence (P39748 whole entry, looked up): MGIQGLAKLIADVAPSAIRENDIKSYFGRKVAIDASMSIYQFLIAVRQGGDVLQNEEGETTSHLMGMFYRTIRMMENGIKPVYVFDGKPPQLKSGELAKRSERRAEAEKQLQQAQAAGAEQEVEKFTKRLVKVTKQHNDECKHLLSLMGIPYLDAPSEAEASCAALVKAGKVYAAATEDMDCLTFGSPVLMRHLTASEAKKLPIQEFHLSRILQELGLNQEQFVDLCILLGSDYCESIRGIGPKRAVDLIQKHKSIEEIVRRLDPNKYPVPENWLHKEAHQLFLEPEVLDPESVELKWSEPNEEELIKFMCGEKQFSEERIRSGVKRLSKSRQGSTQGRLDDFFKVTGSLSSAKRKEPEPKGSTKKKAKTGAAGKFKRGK
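Steps: FEN1 (10 nM) dispensed; compound added by pin tool; 15 min at room temperature; substrate added to 50 nM final; reads at 0 min and 15 min; data normalized and fitted (four-parameter Hill).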
N370S GC: inhibits or activates N370S mutant glucocerebrosidase. P04062. N370S GC spleen homogenate, 4MU-glucoside fluorescence. Potency, µM (series often up to 59.4 µM), inactives show top-dose activity change, negative = inhibition, usual class: inhibitors. 0.092% of 330,000 active. AID 2101;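 note: 0% = full enzyme activity and -100% = no enzyme basal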
Numbers without * were called inactive; ? = inconclusive; . = not tested or not shown; & = joins results of further samples; [ ] = remark or other dose. Calls come from the whole dose curve; as a rule, active = well fitted curve in the direction sought with a large enough effect; inconclusive = small, poorly fitted or top-dose-only effect, or another doubt; inactive = no such curve, though single readings can be large; an effect the other way counts as inactive or inconclusive. Unless noted, % is set by controls: 0 for no effect and ±100 for the full control effect; potency is the fitted concentration of half-maximal effect.

The first 4 entries, ahead of the listing:
SMILES,FEN1 inh,N370S GC
Cc1cc2cc(CN(Cc3ccco3)S(=O)(=O)c3c(C)ccc4nsnc34)c(=O)[nH]c2cc1C,-1%,?
CN1/C(=C\C=O)C(C)(C)c2ccccc21,-3%,-11%
CCn1c(=O)c(=O)[nH]c2cc(C(=O)Nc3ccc(S(=O)(=O)N4CCCC4)cc3)ccc21,-4%,19%
N#CCSCC(=O)Nc1ccc(Br)cc1,2%,0%

This part in full, from the start:
SMILES,FEN1 inh,N370S GC
Cc1cc2cc(CN(Cc3ccco3)S(=O)(=O)c3c(C)ccc4nsnc34)c(=O)[nH]c2cc1C,-1%,?
CN1/C(=C\C=O)C(C)(C)c2ccccc21,-3%,-11%
CCn1c(=O)c(=O)[nH]c2cc(C(=O)Nc3ccc(S(=O)(=O)N4CCCC4)cc3)ccc21,-4%,19%
N#CCSCC(=O)Nc1ccc(Br)cc1,2%,0%
CC1(C)CC(=O)C2=C(C1)N(c1ccc(F)cc1)C(=O)C2(NC(=O)c1ccccc1F)C(F)(F)F (centres undefined),2%,-15%
CC(C)(C)NC(=O)C(c1ccc(-c2ccccc2)cc1)N(C[C@H]1CC[C@@H]([C@@H]2CC[C@H](CO)O2)O1)C(=O)c1ccc2ccccc2c1 (some centres undefined),-19%,.
CCCn1c(SCC(=O)N2c3ccccc3Sc3ccccc32)nc2c1c(=O)n(C)c(=O)n2C,9%,2%
CC(C)(C)OC(=O)C[C@H]1C/C=C\C[C@@H](CC(=O)N[C@@H](CO)Cc2ccccc2)C(=O)N2CCC[C@H]2COC1=O,-2%,.
COC(=O)c1cccc(Nc2ncnc3ccc(C)cc23)c1,9%,-1%
COc1ccccc1CN1CC(C(=O)NCCCc2ccc(F)cc2)CCC1=O (centres undefined),18%,-2%
CCOC(=O)C1CCCCN1Cc1cc(OC)ccc1OC (centres undefined),-2%,-6%
C/C(=N\NC(=O)c1nn(C)c(C)c1Br)c1ccc(NC(=O)C2CCCC2)cc1,22%,1%
c1ccc(C2(CN3CCNC[C@@H]3CC3CCCCC3)CC2)cc1,0%,.
CC(=O)c1ccc(NC(=O)c2ccc(-c3nc(CSc4ccccc4)c(C)o3)cc2)cc1,-3%,.
COCCN(C(=O)c1ccc(N2CCCC2=O)cc1)c1c(N)n(CC(C)C)c(=O)[nH]c1=O,-1%,.
CCn1c(SCC(=O)Nc2ccccc2-c2ccccc2)nnc1-c1ccoc1C,-6%,-2%
C=CCN1C(=O)/C(=C\C=C2\N(C)c3ccccc3C2(C)C)SC1=S,?,5%
Cn1c(-c2ccccc2)n[nH]c1=S,4%,0%
O=C1CSC(c2ccc(F)cc2)N1c1nc2ccccc2s1 (centres undefined),9%,9%
N/C(=N\OC(=O)COc1ccccc1)c1ccncc1,-7%,2%

(next part)
SMILES,FEN1 inh,N370S GC
COc1ccc(S(=O)(=O)N2CCCC(C(=O)N3CCOCC3)C2)cc1C (centres undefined),8%,2%
COc1ccc(NC(=O)CN(C)C(=O)c2sc3ccccc3c2Cl)cc1,-5%,4%
CCN1CCN(CC(=O)N2N=C(c3cccs3)CC2c2ccc(OC)c(OC)c2)C(=O)C1=O (centres undefined),-1%,-5%
Cc1cnc(C(=O)OCC(=O)Nc2cc(S(=O)(=O)N3CCCCC3)ccc2Cl)cn1,0%,8%
CC(C)OC(=O)NCCOC(=O)Nc1ccc(Cl)c(Cl)c1,1%,11%
CCCc1cc(=O)[nH]c(SCC(=O)Nc2cc(C)on2)n1,0%,7%
O=C(CN(C(=O)c1csnn1)c1ccccc1Cl)NCCc1ccccc1,10%,-15%
CC(C)(C)NC(=O)NC(=O)COC(=O)CNS(=O)(=O)c1ccc(Br)cc1Cl,2%,?
CCOc1cc2c(cc1OCC)CN(C(=O)c1cccc(S(=O)(=O)N3CCCC3)c1)CC2,3%,.
CC(=O)c1sc(NC(=O)CCS(=O)(=O)c2ccc(Cl)cc2)nc1C,4%,-11%
CC(C)(Oc1ccc(C2CC2(Cl)Cl)cc1)C(=O)O (centres undefined),8%,-6%&4%
Cc1ccc(SCc2cc(-c3ccc(Cl)cc3)no2)cc1,-2%,3%
Cn1c(Sc2ccc(C(F)(F)F)cc2[N+](=O)[O-])nnc1-c1ccccc1,3%,5%
CSC1=C(C#N)C(c2cccc(Br)c2)CC(=O)N1 (centres undefined),-2%,-4%
CCOC(=O)c1[nH]c(C)c(CCC(=O)NCc2ccc(CC)cc2)c1C,-8%,.
CC1=C(c2ccc(C(C)C)cc2)S(=O)(=O)NC1=NCc1ccccc1C,-4%,.
COc1cc(OC)cc(-c2nnc(SCC(=O)N(Cc3ccccc3)C(C)(C)C)o2)c1,3%,30%
CS(=O)(=O)N(CCc1ccccc1)CC(=O)N1CCN(c2ccccc2F)CC1,-17%,6%
COc1ccc2c(C)cc(SCC(=O)c3ccc4c(c3)OCO4)nc2c1,8%,20%
Cc1cc(C)n(C(=O)CN2C(=O)COc3ccccc32)n1,-17%,6%

New compounds follow.
SMILES,FEN1 inh,N370S GC
Cc1nn(-c2ccccc2)c(Cl)c1/C=N/N1CCN(c2ccccn2)CC1,-18%,-2%
COC(=O)[C@H](Cc1ccccc1)NC(=O)Cn1cnc(C(=O)Nc2ccc(C)c(C)c2)n1,-14%,.
CC(C)C[C@H]1CN=C(Nc2ccccc2)N1CCc1ccc(F)cc1,-9%,-4%
CN1CCN(c2ccc(NC(=O)c3ccccc3Br)cc2)CC1,-4%,-1%
Cc1ccc(-n2nnnc2SCC(=O)Nc2nc(-c3ccc(F)cc3)cs2)cc1C,-11%,-16%
Cc1ccnc(NC(=O)CCCc2ccccc2)c1,2%,9%
COc1ccc(C(=O)NC2CC2)cc1OC1CCN(Cc2ccc(F)cc2)CC1,1%,-1%
CC(=O)Nc1sc(C)c(C)c1C(=O)OCC(=O)NCc1ccc(Cl)cc1,22%,.
O=C(COC(=O)/C=C/c1cccs1)Nc1cccc(S(=O)(=O)N2CCOCC2)c1,-2%,-10%
CCOC(=O)c1ccc(NC(=O)c2ccc(CN3CCOCC3)cc2)cc1,-2%,-9%
O=C(COC(=O)c1ccccc1NCCO)NCC1CCCCC1,3%,.
CCC1C(=O)NCCN1C(=O)c1cccc(OC2CCN(S(=O)(=O)N(C)C)CC2)c1 (centres undefined),-7%,-3%
COc1ccc(C(=O)c2oc3ccccc3c2NC(=O)c2nc(SC)ncc2Cl)cc1Cl,1%,.
Cc1ccc(C(C(=O)NC2CCCC2)N(Cc2ccc(F)cc2)C(=O)c2csnn2)o1 (centres undefined),-6%,6%[2.35 µM]
O=C(CSc1c2c(nc3ccc(Cl)cc13)CCCC2)N1CCCCC1,-2%,.
O=C(N/N=C/c1ccc(OC(=O)c2cccc(F)c2)cc1)c1cccnc1,0%,-4%
Cc1ccc(C)c(NC(=O)CS(=O)(=O)c2cccc3nsnc23)c1,0%,-3%
CCN(Cc1ccccc1)C(=O)Cn1c(=O)n(-c2ccc(Cl)c(Cl)c2)c(=O)c2c(C)c(C(=O)N(C)C)sc21,-21%,.
CCn1c(=O)c(C(C)=O)c(O)c2ccccc21,-16%,4%
O=C(N/N=C/C=C/c1ccco1)c1cccnc1,-4%,-1%

Structural class, those above with a CF3 group.
SMILES,FEN1 inh,N370S GC
CC1(C)CC(=O)C2=C(C1)N(c1ccc(F)cc1)C(=O)C2(NC(=O)c1ccccc1F)C(F)(F)F (centres undefined),2%,-15%
Cn1c(Sc2ccc(C(F)(F)F)cc2[N+](=O)[O-])nnc1-c1ccccc1,3%,5%

New compounds follow
SMILES,FEN1 inh,N370S GC
O=c1[nH]c(CN2CCOCC2)nc2ccccc12,-7%,5%
CCC(=O)Nc1ncc2c(n1)CC(c1ccco1)CC2=O (centres undefined),5%,0%
O=C(NO)c1ccc(OC(F)F)cc1,-2%,-2%
COC(=O)C1CCN(C(=O)COc2ccc(N(C)S(=O)(=O)c3ccc(C)cc3)cc2)CC1,-21%,.
CC(C)(C)NC(=O)NC(=O)COC(=O)c1ccc(OC(F)F)cc1,1%,-20%
O=C(CN(Cc1ccc(F)cc1)C(=O)CCC(=O)Nc1ccccn1)NCc1ccco1,11%,5%
COc1ccc(-c2cc(C(F)(F)F)n3ncc(C(=O)N(C)Cc4ccccc4)c3n2)cc1,0%,24%
Cc1cccc(CCNC(=O)C2CCN(S(=O)(=O)N3CCOCC3)CC2)c1,-19%,3%
Cc1ccc(S(=O)(=O)NN=C2C3CC4CC(C3)CC2C4)cc1[N+](=O)[O-],-4%,0%
Cc1ccc(/C=N/n2c(-c3cccc(Cl)c3)n[nH]c2=S)o1,0%,-3%
CCCCC(=O)NC1(C(F)(F)F)C(=O)Nc2c1c(=O)[nH]c(=O)n2Cc1ccco1 (centres undefined),-2%,20%
COCCNC(=O)/C(C#N)=C\c1ccc(CNS(=O)(=O)c2ccccc2)o1,2%,9%
COC(=O)c1ccc(OC)c(NS(=O)(=O)c2ccc(-n3cnnn3)cc2)c1,-4%,-7%
CCOc1ccc(NC(=O)C2CCCN(S(=O)(=O)c3ccc4[nH]c(=O)ccc4c3)C2)cc1 (centres undefined),0%&2%,-21%
CCOc1ccccc1NC(=O)/C=C/c1ccccc1[N+](=O)[O-],0%,5%
N#CC1=C2N=C(N)c3ccccc3N2C2=C(C(=O)CCC2)C1c1ccc(F)cc1 (centres undefined),-13%,10%
COCCNC(=O)CSc1nc(-c2ccccc2C)nc2c1c(=O)n(C)c(=O)n2C,3%,.
COc1cc2ccc(=O)oc2c(O)c1OCC=C(C)C,?,-10%&-3%
CC(C)CN(CC(C)C)c1nnc(NC(=O)Nc2cccc(C(F)(F)F)c2)s1,16%,.
CCc1cc2cccc(C)c2nc1SCC(=O)N1CCN(C(=O)c2ccco2)CC1,?,-8%

Next section
SMILES,FEN1 inh,N370S GC
CCOc1nc(-c2ccccc2Cl)nc2ccccc12,17%,22%
O=C(CCC(=O)Nc1ccccc1)NNS(=O)(=O)c1ccccc1[N+](=O)[O-],4%,-19%
CC(Sc1nnc(Cc2cccs2)n1C1CCCCC1)C(=O)N1CCc2ccccc21 (centres undefined),3%,6%
CCOC(=O)c1sc(=S)n(-c2ccc(C)cc2)c1SC,4%,-8%
COc1ccc(Nc2cc(C(=O)NCCCN(C)Cc3ccccc3)c3ccccc3n2)cc1,-1%,.
O=C(COC(=O)CCC1CCCC1)Nc1nc2c(F)c(F)c(F)cc2s1,-16%,-2%
CN(CC(=O)OCC(N)=O)S(=O)(=O)c1ccc(Cl)cc1,4%,1%
COc1ccc(-n2ccnc(SCC(=O)NCc3ccc(C)cc3)c2=O)cc1Cl,-6%,-14%
COc1ccc(CCNC(=O)C2CCCN(S(=O)(=O)c3ccccc3)C2)cc1 (centres undefined),14%,-2%
CCCCCC(=O)Nc1ccc(Cc2ccncc2)cc1,2%,12%
O=C(N/N=C/c1ccccc1[N+](=O)[O-])c1cnccn1,-3%,-1%
Cc1ccc(NC(=O)CCNC(=O)Cn2cnc3ccccc3c2=O)cc1F,14%,3%
Fc1ccc(CN2CCN(C(=S)NCCc3ccccc3)CC2)c(Cl)c1,6%,-4%
Cc1nnc(NC(=O)c2ccncc2)s1,7%,11%
COc1ccccc1CN(C)C(=O)C1(c2ccc(Cl)cc2)CC1,11%,6%
Cc1c(N=Cc2c(O)n(C3CCCCC3)c(=O)[nH]c2=O)c(=O)n(-c2ccccc2)n1C,-1%,-11%
CCOC(=O)c1ccc(N=CC2=C(O)CC(C)(C)CC2=O)cc1,-5%,-10%
CC(C)c1ccc(C(=O)Nc2cccc3cccnc23)cc1,4%,.
N#CCC(=O)Nc1ccc(C(=O)N2CCN(c3ccccn3)CC2)cc1,3%,-1%
Cc1ccc(/C=N/NC(=O)Cn2nnc(N)n2)o1,11%,18%

(list continues)
SMILES,FEN1 inh,N370S GC
COc1ccc2nc(SCC(=O)N3CC(=O)Nc4ccccc43)c(C#N)cc2c1,-4%,?
Cc1nn(C2CCS(=O)(=O)C2)c(C)c1CN(C)C(=O)c1cccc(Cl)c1 (centres undefined),14%,.
CN(CCc1ccccn1)C(=O)CCC1CCCN(C(=O)c2ccc3c(c2)OCCO3)C1 (centres undefined),16%,-26%
O=C(CCc1nc(-c2ccccc2)c(-c2ccccc2)o1)OCc1ccc(Cl)cc1,-20%,13%
Cc1cc(C)c2sc(NNC(=O)C3COc4ccccc4O3)nc2c1 (centres undefined),4%,?
O=C(NCc1ccncc1)c1cn(-c2ccccc2)nc1-c1cccnc1,-5%,-8%
CN(CCc1ccc(Cl)c(Cl)c1)CCN1CCCCCC1,.,5%&-10%
CCOc1ccc(NC(=O)N2CCC(NC(=O)C(Cc3ccccc3OC)NC(C)=O)CC2)cc1 (centres undefined),-1%,-7%
COc1c(O)cccc1O,.,9%
CCC1CCCCN1S(=O)(=O)c1ccc2c(c1)CCCN2C(C)=O (centres undefined),-10%,.
O=C(c1cc2ccccc2oc1=O)N(Cc1ccccc1)CC1CCCO1 (centres undefined),-3%,-6%
CCOc1ccc(C(=O)N2CC(=O)Nc3ccc(F)cc3C2c2ccc(F)cc2)cc1 (centres undefined),-3%,.
CCC(C)CCN1C(N(C)C)=NC[C@@H]1CC(C)C (some centres undefined),1%,-8%

Compound activity as filed in PubChem BioAssay.

This is a subset; most or all hits stand in other tables.
